RN4220 kill: kills Staphylococcus aureus RN4220; S. aureus RN4220 growth, OD600, 16 h; AID 1259311; inhibition, % (test concentration not listed); 330,000 compounds, 0.33% hits;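 active = z-score of -3 or lower and OD600 up to 0.18 on both plates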;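 note: plate controls were untreated cells for no effect and reference antibiotic for full effect; stock transfer was 100 nL into about 80 µL; one replicate is shown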
Mtb hypoxia rep: inhibitors of hypoxia-regulated fluorescent reporter in Mycobacterium tuberculosis | M. tuberculosis hypoxia-regulated fluorescent reporter, fluorescence | fluorescence inhibition, % (concentration not given with the values) | AID 1159583 | 300,000 compounds, 0.1% hits;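 active = 35 to 45% if threefold the growth effect, above 45% if 1.5-fold the growth effect; inactive = the rest, general growth blockers included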;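 note: wells of about 50 µL received 100 nL stock; 0% = vehicle wells and 100% = reference inhibitor wells; whole bacteria with a GFP reporter of the hypoxia response; strong numbers were not always called active; many hits fall short of the cut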
BJeLR viability: BJeLR cell viability loss; BJeLR (HRASV12) viability, CellTiter-Glo ATP luminescence, 48 h; reference of the scale not given here; inhibition, % (test concentration not listed); 300,000 compounds, 0.17% hits; AID 1554;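 active = replicate mean above 50%; inconclusive = above 50% but judged a plate artefact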;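 note: 50 nL library stock added to about 25 µL; numbers are from one replicate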
Sa ugtP lethal: kills S. aureus RN4220 lacking UgtP; S. aureus RN4220 ugtP deletion, OD600 growth, 16 h; some inactives read as strong as hits; growth inhibition, % (no concentration beside the values); 330,000 compounds, 0.54% hits; AID 1259309;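 active = z-score under -3 and OD600 up to 0.15 on both plates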;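 note: plate controls were untreated wells for no effect and antibiotic for full effect; wells of about 80 µL received 100 nL stock; the first replicate is given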
PrP 5UTR inh: suppresses PrP 5' UTR mRNA reporter expression; cell-based PrP 5' UTR mRNA reporter, plate reader; inhibition, % (concentration not given with the values); 340,000 compounds, 0.35% hits; AID 488862;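 active = every replicate at 50% or more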;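 note: 0 = median of the neutral control wells; tested in H4 reporter cells; numbers are from one replicate; inactives centre near -14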
Bead autofluor: flagged as autofluorescent in microsphere protease counterscreen | compound autofluorescence counterscreen, microsphere flow cytometry; hits give high values | fluorescence intensity (test concentration not listed) | 360,000 compounds, 3.1% hits | AID 624483;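 active = at least 3 SD above the mean of all compounds, about 16000 in these data; inconclusive = too few beads counted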;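 note: 100 nL of 1 mM stock went into each well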
Mtb hypoxia rep growth: second read-out of Mtb hypoxia rep, no call of its own (marks repeat the call); growth inhibition, %; measured here: M. tuberculosis growth (absorbance);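 0% = vehicle and 100% = reference antibiotic; read after six days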
Starred values were filed as active, the others as inactive; ? = inconclusive; . = no result given; & = joins results of further samples.

SMILES	RN4220 kill	Mtb hypoxia rep	Mtb hypoxia rep growth	BJeLR viability	Sa ugtP lethal	PrP 5UTR inh	Bead autofluor
C=C(C)CSc1nnc(-c2ccccc2)n1N	-4.5	6	4	-1	-5	-17	2434
C#CCOc1c(Cl)cc(/C=C2/C(=O)ON=C2C)cc1OCC	2.0	2	-1	4	4	-10	3608
C/C(=N\NC(=O)c1ccncc1)c1ccc(NC(=O)c2ccc(Cl)cc2)cc1	.	.	.	1	.	-65	5985
Cc1c(Cl)c([N+](=O)[O-])nn1CC(=O)NCc1ccc(Cl)cc1	-1.0	-3	6	-7	2	-9	3934
Cn1c(CO)c(-c2ccccc2)c2cc([N+](=O)[O-])ccc21	-0.4	5	4	5	-2	-16	3878
COc1ccc(CC(=O)N/N=C/c2ccc(-c3cccc(C(=O)O)c3)o2)cc1OC	.	.	.	-2	.	-19	5037
CCCCn1c(N)c(N(CCOC)C(=O)c2ccc(N3CCCC3=O)cc2)c(=O)[nH]c1=O	2.6	2	3	.	3	-14	6185
O=C(COc1ccccc1/C=C1\SC(=O)NC1=O)Nc1ccc(F)cc1	.	.	.	4	.	-11	2228
COc1cc2c(cc1OC)C(C)N(C(=O)Cc1ccc(C(F)(F)F)cc1)CC2 (centres undefined)	1.7	-2	0	4	2	-5	4171
CCC(C)c1c(O)nc(SCC(=O)N2CCCCCC2)[nH]c1=O (centres undefined)	1.6	5	0	8	-1	-24	3415
O=S1(=O)C=CC(Sc2nc3ccccc3[nH]2)C1 (centres undefined)	3.5	.	.	6	0	1	2541
COc1ccc(C(CNC(=O)c2cccc(S(=O)(=O)N3CCCC(C)C3)c2)N(C)C)cc1 (centres undefined)	-5.9	4	1	.	5	-5	9218
O=C(CCC1N=C2c3ccccc3N=C(SCc3cccc(Cl)c3)N2C1=O)NCc1ccco1 (centres undefined)	-1.0	7	6	-10	15	-25	3070
CC(CC(=O)Nc1cccc(Cl)c1Cl)=NNC(=O)C(=O)NC1CCCCC1	3.5	3	-4	.	2	.	.
Cc1ccc(S(=O)(=O)N2CCC(C(=O)NNS(=O)(=O)c3ccc(Cl)cc3)CC2)cc1	1.2	2	13	-16	-1	10	9485
Cc1ccc(S(=O)(=O)NCCC(=O)NCc2ccccn2)cc1	4.2	6	1	-3	19	-23	?
CC(Oc1ccccc1F)c1nnc(SCC(=O)NCc2ccc3c(c2)OCO3)o1 (centres undefined)	11	1	5	.	1	-11	9177
Cc1c(NC(=O)C(C)OC(=O)Cc2ccc(F)cc2)c(=O)n(-c2ccccc2)n1C (centres undefined)	1.7	9	-4	16	2	-13	5504
CCCC(=O)Nc1nn(CC)c2nc3ccc(C)cc3cc12	.	.	.	-2	.	-59	4240
Cl/C(C=Nn1cnnc1)=C/c1ccccc1	3.5	6	16	.	7	.	.
CC1Cc2ccccc2N1C(=O)c1cccnc1 (centres undefined)	0.1	6	6	4	-2	-19	9638
CC(C)C(O)(C#CCN1CCCCCC1)c1ccccc1 (centres undefined)	.	.	.	0	.	-25	4847
Cc1ccccc1NC(=S)NC(=O)CCc1ccccc1	3.2	25	29	-4	85*	-9	19923*
CN1CCN(/N=C/c2c(O)n(CCC3=CCCCC3)c(=S)[nH]c2=O)CC1	6.6	11	-12	3	6	-4	6016

In a second layout: entries from further up
Compound | RN4220 kill | Mtb hypoxia rep | Mtb hypoxia rep growth | BJeLR viability | Sa ugtP lethal | PrP 5UTR inh | Bead autofluor
Cc1c(Cl)c([N+](=O)[O-])nn1CC(=O)NCc1ccc(Cl)cc1 | -1.0 | -3 | 6 | -7 | 2 | -9 | 3934
Cn1c(CO)c(-c2ccccc2)c2cc([N+](=O)[O-])ccc21 | -0.4 | 5 | 4 | 5 | -2 | -16 | 3878

Continued.
SMILES	RN4220 kill	Mtb hypoxia rep	Mtb hypoxia rep growth	BJeLR viability	Sa ugtP lethal	PrP 5UTR inh	Bead autofluor
Cc1ccccc1Cn1ccc(NC(=O)c2cnn3cccnc23)n1	0.1	-3	-5	2	-9	-27	8972
CN(C)CCCNC(=S)/N=c1\sccn1Cc1ccccc1Cl	.	.	.	1	.	-5	3743
CCOC(=O)CN1C(=O)NC(c2cccc(C(F)(F)F)c2)C(C(=O)OC)=C1C (centres undefined)	1.9	7	8	.	-3	.	.
Cc1cc(N/N=C/c2ccc(O)cc2)nc(NS(=O)(=O)c2ccccc2)n1	.	.	.	2	.	-13	8938
CCOc1ccc(Cl)cc1S(=O)(=O)N1CCC(C(=O)NCc2ccco2)CC1	1.1	3	8	-9	2	-42	6114
O=C(NCc1ccccc1Cl)c1ccc[nH]1	3.9	16	10	-3	3	77*	4476
CC(=O)c1cn(CC(=O)Nc2ccccc2Cl)c2ccccc12	2.1	8	0	-5	2	-23	3430
CN(CC(=O)NCCc1ccc(S(N)(=O)=O)cc1)CC(=O)Nc1ccccc1C(F)(F)F	3.5	5	9	.	3	-4	3439
CCOC(=O)C1CCN(C(=O)c2ccc(OCC(=O)N3CCOCC3)c(OC)c2)CC1	1.8	6	-3	-7	14	-25	3975
COC(=O)C1=C(c2cccc(OC)c2OC)CC2CCC1N2C(=O)N1CCCCC1 (centres undefined)	5.7	11	9	.	1	.	.
CC(=O)c1ccc(-n2c(CCC(=O)O)ccc2-c2ccccc2)cc1	4.7	4	4	4	3	-6	3832
CCn1c(O)c(N=NC(=O)C(O)c2ccccc2)c2ccccc21 (centres undefined)	1.0	-6	7	3	0	6	4605
CCOc1ccccc1/C=N/NC(=O)Cc1csc(Nc2cccc(C(F)(F)F)c2)n1	.	.	.	-1	.	-34	3412
COc1ccc(-c2cc(-c3ccccc3O)[nH]n2)cc1OC	-0.4	-1	-2	-5	2	-66	9833
C/C(N)=C(/C#N)C(=O)COC(=O)c1cc(-c2cccc3ccccc23)nc2ccccc12	.	.	.	-8	.	-13	2148
CCOC(=O)c1ccc(NC(=O)C(=O)NCc2ccco2)cc1	4.7	0	3	45	-3	-29	3718
O=C(O)CC(C(=O)Nc1ccc(Cl)c(Cl)c1)C1CCCO1 (centres undefined)	2.4	5	7	-3	2	-33	11218
O=C1NC2(CCN(Cc3ccccc3)CC2)Oc2ccccc21	7.0	-1	6	-1	10	-13	2063
O=C1CCN(CCc2ccccc2)CCN1[C@H](CO)Cc1ccccc1	.	.	.	9	.	-11	3157
Cc1ccccc1OCCn1c(=O)sc2ccccc21	8.1	.	.	.	-13	-17	4192
Nc1ccc(N2CCCCC2)c(S(=O)(=O)Nc2ccc(Cl)cc2)c1	2.0	5	-4	-2	1	-20	4793
Cc1cc(=O)oc2c(C)c(OCC(=O)N3CCN(Cc4ccccc4)CC3)ccc12	-1.8	0	-9	2	1	-5	4367
CCCCCc1ccc(-c2nnc(N)s2)cc1	11	2	4	-3	70	-20	2562
Cc1ccccc1NS(=O)(=O)c1ccc(C(=O)N2CC(C)OC(C)C2)cc1 (centres undefined)	3.0	6	-3	3	-1	-8	?
COc1cccc(C(=O)NN=c2oc3c(OC)cccc3cc2C(=O)NCc2ccccc2)c1	5.4	-3	-4	.	1	.	.
OCCC1CC(O)C(O)[C@]2(OCCc3ccccc32)O1 (some centres undefined)	-4.1&4.1&6.5	-1&3&15	-1&4&8	.	-4&-2&-2	.	.
COc1ccc(C2=NN(C(N)=S)C(c3ccccc3)C2)cc1 (centres undefined)	5.9	19	3	2	-3	-88	2785
CCc1nn(CC(=O)Nc2ccc(Br)c(C)c2)c(=N)s1	-12	-1	-1	-3	2	-15	3961
Cc1ccc(C(=O)COC(=O)c2nc(Cl)ccc2Cl)cc1	5.1	17	7	.	1	-12	4021
Cc1ccc(C)c(S(=O)(=O)N2CCN(C(=O)Cc3ccc(S(=O)(=O)N4CCOCC4)s3)CC2)c1	2.7	5	-1	-17	6	-11	5792
CCc1ccc(S(=O)(=O)N/N=C\c2cn(CC(N)=O)c3ccccc23)cc1	.	.	.	-10	.	-17	6002
COC(=O)c1c(NC(=O)c2ccccc2)sc2c1CC(C)(C)NC2(C)C	-0.8	-1	4	-1	-11	-2	5152
Cc1nnc(SCc2ccc(CC(=O)O)cc2)o1	2.9	-13	6	-15	1	1	3864
CCOc1ccc(NC(=O)CN(C)C(=O)c2cc(-c3cccs3)nn2-c2ccccc2)cc1OCC	5.6	6	7	-2	14	-13	5232
Cc1ccc(Cc2nnc3n(-c4ccccc4)nc(C(=O)c4ccccc4)n3c2=O)cc1	-4.0	9	12	-6	-10	-10	21560*
COc1cc(C)c(NC(=O)COc2ccc3c(c2)CCC3)cc1OC	1.9	-17	-1	.	-4	4	3738
CCCCCCCCCCCCN1[C@@H](CC(=O)O)c2cc(F)ccc2S1(=O)=O	.	.	.	15	.	-5	3467
O=C(NCCCN1CCCC1=O)c1cccc(S(=O)(=O)Nc2ccc(F)cc2)c1	5.9	-4	-4	.	10	2	2884
Cc1cccc(NC(=O)Nc2ccc(F)cc2)n1	2.2	-2	9	-3	3	-10	3974
COc1ccccc1C(=O)NCc1nnc(SC(C)C(=O)Nc2nccs2)n1C (centres undefined)	.	.	.	-12	.	-20	3457
COc1ccc(N(CC(=O)NCc2ccco2)C(=O)CCC(=O)Nc2nccs2)c(OC)c1	-1.4	-6	-17	-11	-1	-20	3855
COc1cc2cc(C[C@H](C)O)oc(=O)c2cc1OC	-6.4	7	-1	.	4	-11	3793
CNc1ccc2c3c(cccc13)C(=O)N(C)C2=O	.	.	.	-3	.	6	4406
COc1ccc2[nH]c(=O)c(CN(CCCN(C)C)C(=O)Nc3ccc(F)cc3)cc2c1	5.3	9	8	-1	4	-17	2946
COc1ccc(NC(=O)CCSc2nnc(C)s2)cc1	5.3	11	11	-10	10	-21	6529
Cc1c(C)n(-c2ccc(Cl)cc2)c2ncnc(N)c12	2.2	1	-9	3	-4	-6	3903
O=C(CSCc1ccccc1)Nc1cccc(F)c1	.	.	.	-2	.	-73	2209
Cn1cc(C(=O)Cc2ccccc2)c2ccccc21	4.8	9	7	0	3	-20	2144
CCOCCCNC(=O)CN(c1cc([N+](=O)[O-])ccc1OC)S(C)(=O)=O	1.6	0	1	11	1	-2	?
COc1ccc(/C=N/N2C(C)CCCC2C)cc1OC (centres undefined)	.	.	.	-8	.	12	4003
O=C(CSc1ccc(-c2ccco2)nn1)NCc1ccccc1Cl	13	3	-1	-3	0	-14	9214
Cc1ccc(NC(=O)CN2C(=O)NC3(CCc4ccccc43)C2=O)cc1S(=O)(=O)N1CCCCC1 (centres undefined)	-2.7	-1	-7	9	-4	-29	?
Cc1cc(Nc2ccc3c(c2)OCCO3)c2cc(Cl)ccc2n1	1.5	-7	5	8	7	-15	2040
C=CCOC(=O)COc1ccc2c(C)c(C)c(=O)oc2c1C	-3.1	-2	13	-1	13	0	9540
COc1ccc(CCNC(=O)CC(=O)NN=Cc2ccc(Br)cc2)cc1OC	-4.3	-7	-1	.	3	.	.
COc1ccccc1N1CCN(C(=O)/C=C/c2ccc3c(c2)OCO3)CC1	1.5	1	10	-4	2	-11	11055
CC(=O)Nc1c(Br)cc(N2C(=O)CCC2=O)cc1Br	3.5	2	-2	-19	1	-7	4443
O=C(Nc1ccc(F)cc1)c1c(O)c2c(n(Cc3ccccc3)c1=O)CCCC2	-4.6	-3	-4	-8	-2	-22	2008
O=C(CCc1ccccc1)OCC(=O)c1ccc(Br)cc1	3.5	0	-1	-2	7	8	1977
O=S(=O)(c1ccc(F)cc1)N1CCC(N2CCCCCC2)CC1	1.2	-4	-2	-3	3	-9	16305*
(cont.)
SMILES	RN4220 kill	Mtb hypoxia rep	Mtb hypoxia rep growth	BJeLR viability	Sa ugtP lethal	PrP 5UTR inh	Bead autofluor
Cn1c(=O)oc2cc(S(=O)(=O)CCC(=O)Nc3ccccc3)ccc21	3.8	0	2	-3	-2	-12	5658
Cc1ccc(-n2ncc3c(NCCCN4CCOCC4)ncnc32)c(C)c1	2.5	12	13	-1	12	-5	5793
O=C1N=C(c2ccccc2)C(c2ccccc2)N1 (centres undefined)	9.3	11	10	-4	4	-17	5094
CCOc1ccc(CCNC(=O)c2cc3c(C)nccc3[nH]c2=O)cc1OCC	1.6	8	2	-8	6	-6	3638
CC(C)CC1(C)NC(=O)N(CC(=O)Nc2ccc3c(c2)OCCO3)C1=O (centres undefined)	0.8	5	5	.	6	-12	2800
O=C(O)c1ccc(CNCc2ccccc2Cl)cc1	1.2	.	.	-1	3	-14	2791
CC(=O)Nc1cccc([N+](=O)[O-])c1	-0.8	-5	-4	-1	4	-8	2039

Source: PubChem
